YjeE inh = qHTS Assay for Inhibitors of YjeE. hit rate 0.05% among 71,000. Potency, µM. purified YjeE, fluorescence polarisation of a bound ADP probe. tRNA threonylcarbamoyladenosine biosynthesis protein TsaE (Escherichia coli (strain …; active = well fitted falling curve; inconclusive = weaker or top-dose-only fall, or a rising curve; inactive = flat or poorly fitted curve;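 note: top concentration of the series not given in the record; excess ADP was the control for the full effect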
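Fluorescence polarization of a BODIPY Texas Red–ADP probe (2 uM) bound to purified YjeE (10 uM) was read after 15 min room-temperature incubation with compounds. Loss of polarization marks inhibitors; ADP serves as titrated control.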
PK Bst = Pyruvate Kinase. partly purified Bacillus stearothermophilus pyruvate kinase, luminescence ATP production; ribose 5-phosphate activator present at AC10. Potency, µM. hit rate 1.2% among 51,000; in the data active means potency below about 11 µM; inconclusive means mostly about 12 µM to 25 µM; inactive means weaker than that;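 the screen sought inhibitors and activators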;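 note: potency is the fitted concentration of half-maximal effect; scaled between full activation by ribose 5 phosphate and full inhibition by luteolin; about four in five hits inhibit and the cells do not say which; series up to 57 µM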
Numbers without * were called inactive; i = inactive; u = inconclusive; x = no result given. An excerpt, so the mix of outcomes need not match the whole.

PK Bst	YjeE inh	Compound
>57	i	COC(=O)c1ccc(NC(=O)CCn2c(=O)oc3ccccc32)cc1
>57	i	Cc1cccc(C)c1NC(=O)c1cc(S(=O)(=O)N2CCOCC2)ccc1F
x	i	Cc1c(C#N)c2ncnc(-c3ccccc3)c2n1-c1ccccc1
>57	i	COc1ccc(OCCN2CCN(C3CC(=O)N(CCC(C)C)C3=O)CC2)cc1 (centres undefined)
>57	i	COc1cc2cc(CN(CCN3CCCC3)C(=O)Nc3ccc(F)cc3)c(=O)[nH]c2cc1OC
>57	i	CC(=O)c1c(C)[nH]c(C(=O)OCC(=O)Nc2ncc(Cl)c(C)c2Cl)c1C
x	i	CN1CCN(c2cc(-c3ccc(N(C)C)cc3)ncn2)CC1
>57	i	Cc1ccc(Cn2nnc3c(=O)n(CC(=O)N4CCN(c5ccccc5)CC4)cnc32)cc1
x	i	COCCn1c(=O)c(-c2cc(F)cc(F)c2)nc2cnc(N(C)C)nc21
>57	i	c1ccc(-c2nnc3sc(-c4cc5ccccc5o4)nn23)cc1
>57	i	O=C(NCc1ccccn1)C1CCN(S(=O)(=O)c2cnc[nH]2)CC1
>57	i	COC(=O)C1=C(N)Oc2cc(C)n(CCCn3ccnc3)c(=O)c2C1c1cccc(Cl)c1 (centres undefined)
11*	i	O=C(Nc1ccc2c(c1)OCCO2)C1CCCN1S(=O)(=O)c1ccc(Cl)cc1 (centres undefined)
>57	i	NC(=O)CSc1nnc(-c2ccncc2)n1CCc1ccccc1
>57	i	CCCc1nc(NC(C)=O)c(C#N)c(-c2ccco2)c1CC
>57	i	N#Cc1c(-c2ccccc2)nc(N2CCOCC2)[nH]c1=O
>57	i	CC1C=Cc2ccccc2N1C(=O)c1ccccc1 (centres undefined)
>57	i	O=C(NCCC1=CCCCC1)c1ccc(Cl)c(S(=O)(=O)N2CCOCC2)c1
x	i	COc1ccccc1CNc1ncncc1-c1ccccc1OC
x	i	O=C(c1cccs1)n1cc(C(=S)N2CCOCC2)c2ccccc21

More results follow:
PK Bst	YjeE inh	Compound
x	i	CC(Cc1ccccc1)C(=O)N(C)Cc1ccccc1 (centres undefined)
x	i	CN(C)c1ccc(C=Nc2ccccc2C(N)=O)cc1
>57	i	O=C(OCC(=O)c1cccs1)C1=COCCO1
>57	i	Cc1cccc(-c2nnc(SCC#N)n2-c2cccc(Cl)c2)c1
>57	i	COC(=O)c1[nH]c2cccc(OC)c2c1NC(=O)CCN1CCN(c2cccc(Cl)c2)CC1
x	i	CC(C)Oc1ccc(NC(=O)Oc2ccccc2)cc1
i	i	NC(N)=NC(=O)c1nc(Cl)c(N)nc1N
>57	i	Cc1ccc(C23CC4CC(CC(NC(=O)N5CCN(C)CC5)(C4)C2)C3)cc1
>57	i	CC(C)(C)OC(=O)N[C@@H](Cc1ccccc1)c1nnc(S(=O)(=O)Cc2cccc(F)c2)o1
>57	i	COc1ccc(OCc2nnc(SCC(=O)NCc3ccco3)o2)cc1
>57	i	CC(C)CNc1nc(Oc2ccc(=O)n(-c3ccccc3)n2)nc(N2CCOCC2)n1
x	i	Cc1ccc(-c2nc(CS(=O)CC(=O)NCCC(C)C)c(C)o2)cc1 (centres undefined)
x	i	Cc1cc(=O)oc2cc3c(cc12)OCCN3
>57	i	COn1c(=O)c(-c2ccc(Cl)cc2)[n+]([O-])c2ccccc21
>25.6	x	COc1cccc(-c2nc(N3CCC(C)CC3)c3ccccc3n2)c1O
x	i	NS(=O)(=O)c1ccc(N=Nc2ccc[nH]c2=O)cc1
>57	i	O=C(c1ccccc1)N1CCN(CC2CC=CCC2)CC1 (centres undefined)
x	i	O=C(Nc1nccs1)C1CCN(S(=O)(=O)c2cccnc2)CC1
x	i	CCCc1cc(=O)[nH]c(SCC(=O)NC2CCCCC2)n1
x	i	O=C(c1cc2ccccc2cc1OCC(O)CN1CCCCC1)N1CCCCC1 (centres undefined)

Entries above that bear a hit mark in PK Bst.
PK Bst	YjeE inh	Compound
11*	i	O=C(Nc1ccc2c(c1)OCCO2)C1CCCN1S(=O)(=O)c1ccc(Cl)cc1 (centres undefined)

Additional entries follow.
PK Bst	YjeE inh	Compound
>57	i	COc1cc(NC(=O)Cn2c(-c3cncs3)nc3ccccc32)cc(OC)c1OC
x	i	Brc1c(OCCOCCn2cncn2)ccc2ccccc12
x	i	COc1cc(/C=N\n2nnnc2N)ccc1OCc1ccc(F)cc1
>57	i	Cc1ccc(OCC(=O)N(Cc2ccc(N(C)C)cc2)C2CCS(=O)(=O)C2)cc1 (centres undefined)
>57	i	COc1ccccc1N(CN1CCCC1=O)C(=O)c1ccccc1F
>57	i	Cc1ccc(C)c(-n2c(SCC(=O)Nc3nonc3C)nnc2-c2ccoc2C)c1
x	i	N=C(N)c1ccc(N=Nc2c(O)ccc3c2[nH]c2ccccc23)cc1
>57	i	OC1CC(c2ccco2)NC2(CCCCC2)C1 (centres undefined)
>57	i	N#Cc1ccc(NC(=O)COC(=O)C2=COCCO2)cc1
>57	i	Cc1c(C(=O)NCc2cccnc2)oc2ccc(S(=O)(=O)N3CCCCCC3)cc12
>57	i	Cc1cc(NC(=O)CSc2nc(C3CC3)nc3sc4c(c23)CCC(C)C4)no1 (centres undefined)
>57	i	CN1CCN(CC(=O)N(C)c2nc(-c3ccccc3)cs2)CC1
>57	i	CSc1nnc(Cn2c(=O)sc3ccccc32)n1-c1cccc(Cl)c1
>57	i	CC(C)(C)NC(=O)CSc1nnc(CN2CCCCCC2=O)n1-c1ccccn1
>57	i	Cc1ncc(CO)c2c1OC(C)(C)OC2
>57	i	C=CCn1c(SCC(=O)Nc2ccc3c(c2)OCO3)nnc1-c1cc(Br)ccc1O
>57	i	CC(C)NC(=O)C1CCCN(S(C)(=O)=O)C1 (centres undefined)
x	i	COc1ccc(-n2c(=O)c(CCc3ccccc3)nc3cnc(N(C)C)nc32)cc1
>57	i	CC(C)CCn1c(=S)[nH]c2ncccc2c1=O
>57	i	O=C(NCc1ccco1)c1nc(-c2ccccc2)n(-c2ccccc2)n1

Three records picked at random from the list so far, as already listed:
PK Bst	YjeE inh	Compound
>57	i	OC1CC(c2ccco2)NC2(CCCCC2)C1 (centres undefined)
x	i	COc1cc(/C=N\n2nnnc2N)ccc1OCc1ccc(F)cc1
>57	i	Cc1ncc(CO)c2c1OC(C)(C)OC2

Next section.
PK Bst	YjeE inh	Compound
>57	i	COc1ccc(CC(=O)Nc2cccc(C(=O)O)c2C)cc1
>57	i	Cc1ccnc(N2CCC(C(=O)NCc3ccc4c(c3)OCO4)CC2)n1
>25.6	x	Cc1noc(NS(=O)(=O)c2ccc(NC(=O)COc3ccccc3)cc2)c1C
>57	i	CCOC(=O)c1[nH]c(C)c(C(=O)Nc2ccccc2F)c1C
x	i	CN1CCN(CCC(=O)Nc2ccc(F)c(F)c2)CC1
>25.6	x	COc1cccc(-c2nnc3sc(C4CCCCC4)nn23)c1
x	i	O=C(NCCN1CCN(c2ccccc2)CC1)C1CCCN(S(=O)(=O)c2cnc[nH]2)C1 (centres undefined)
>57	i	FC(F)(F)c1cc(-c2cccs2)nc(NCc2ccco2)n1
>57	i	O=C1c2ccccc2C(=O)N1Cc1nc2ccccc2c(=O)n1Cc1ccco1
>57	i	Nc1ccccc1S(=O)(=O)c1ccccc1N
>57	i	Cc1cc(C(=O)OCC(=O)c2c(N)n(C)c(=O)n(C)c2=O)c(C)n1-c1ccccc1
>57	i	c1ccc(-c2nc3ccccc3nc2-c2ccccn2)nc1
>57	i	CCN1CCCC1CNC(=O)c1ccc2c(=O)n(CCOC)c(=O)[nH]c2c1 (centres undefined)
x	i	CCNc1nc2c(c(=O)[nH]c(=O)n2C)n1CC(C)C
>57	i	Cc1cc(C)n2nc(SCc3cc(=O)n4c(C)cccc4n3)nc2n1
>57	i	CCN(CCCNC(=O)CN1C(=O)COc2ccccc21)c1ccccc1
x	i	N#CCCN1CCN(S(=O)(=O)c2ccc(S(=O)(=O)NCc3ccccc3)cc2)CC1
x	i	O=C1O/C(=C\Br)CC[C@@H]1c1cccc2ccccc12
>57	i	Cc1cccc(-n2ncc3c(Nc4c(C)n(C)n(-c5ccccc5)c4=O)ncnc32)c1
>57	i	O=c1[nH]c2ccccc2n1C1=CCCC1

Profiles from above:
Profile of `COc1cccc(-c2nnc3sc(C4CCCCC4)nn23)c1` → PK Bst: >25.6; YjeE inh: x
Profile of `COc1ccc(CC(=O)Nc2cccc(C(=O)O)c2C)cc1` → PK Bst: >57; YjeE inh: i
Profile of `CC(C)Oc1ccc(NC(=O)Oc2ccccc2)cc1` → PK Bst: x; YjeE inh: i

Further results follow:
PK Bst	YjeE inh	Compound
x	i	O=C(c1cc2ncc(Br)cn2n1)N1CCOCC1
>57	i	O=C(CN1C(=O)CCC1=O)Nc1ccc(S(=O)(=O)N2CCOCC2)cc1
>57	i	O=C(Nc1nnc(SCC(=O)N2CCCCC2)s1)C1CCCCC1
x	i	ClC(Cl)(Cl)C(N1CCN(c2ccccc2)CC1)N1CCN(c2ccccc2)CC1
x	i	Cc1nc2ccccc2n1-c1ccccc1
>57	i	COc1cc(NC(=O)C2CC(=O)NC3=C2C(=O)CC(C)(C)C3)c(OC)cc1Cl (centres undefined)
>11.4	x	COc1ccc(-c2nnc3sc(-c4c(OC)cccc4OC)nn23)cc1
u	i	OC(Cn1cncn1)c1ccc(Cl)cc1Cl (centres undefined)
x	i	CC(=O)Nc1ccc(S(=O)(=O)N2CCN(C(=O)CCC3CCCC3)CC2)cc1
>57	i	CC1Cc2ccccc2N1C(=O)CCN1C(=O)C2C3C=CC(C3)C2C1=O (centres undefined)
>57	i	CCCNS(=O)(=O)c1ccc(CCC(=O)NCC2CCCO2)cc1 (centres undefined)
x	i	O=c1ccc(-c2ccccc2)n[nH]1
>57	i	COCCn1nnnc1CN(CCCN1CCOCC1)Cc1cc2c(C)ccc(C)c2[nH]c1=O
>57	i	COc1ccccc1NS(=O)(=O)c1ccc(C)c(C(N)=O)c1
>57	i	COc1ccc2[nH]c(=O)c(CN(Cc3ccccc3OC)Cc3nnnn3CC3CCCO3)cc2c1 (centres undefined)
>57	i	Cc1ccccc1NC(=O)CSc1nc2c(c(-c3ccco3)c1C#N)CCCC2
>57	i	COc1ccc(C(CC(=O)O)NC(=O)COc2ccccc2OC)cc1OC (centres undefined)
>57	i	CCOC(=O)c1cnc(-n2nc(C)cc2C)nc1-n1nc(C)cc1C
>57	i	COC(=O)COc1ccc(S(=O)(=O)N2CCN(c3ccccc3F)CC2)cc1
>57	i	CSc1nc(N(CCO)CCO)c2sc3nc(-c4ccco4)c4c(c3c2n1)CCC4

Following part
PK Bst	YjeE inh	Compound
>57	i	CCOc1ccc(Cn2c(SCCCCC#N)nc3c2c(=O)n(C)c(=O)n3C)cc1OCC
x	i	CC(C)n1c(Nc2ccccc2)nc2ccccc21
>57	i	Cc1ccc(-n2c(C)cc(C(=O)OCC(=O)N(CC(C)C)C3CCS(=O)(=O)C3)c2C)cc1 (centres undefined)
>57	i	COc1cc2c(C(=O)NCc3ccc4c(c3)OCO4)cn(CC(C)C)c(=O)c2cc1OC
x	i	CCOC(=O)N1CCN(Cc2nc(N)nc(Nc3ccc(Oc4ccccc4)cc3)n2)CC1
>57	i	Cc1ccc(N2CC(C(=O)Nc3ccc(S(=O)(=O)N4CCCC4)cc3)CC2=O)cc1 (centres undefined)
>57	i	COCCn1c(SCC(=O)c2ccc(CNC(C)=O)o2)nc2ccccc2c1=O
>57	i	O=C(NCc1ccco1)C(Cc1ccccc1)NS(=O)(=O)c1cccc2nsnc12 (centres undefined)
x	i	COCCNC(=O)CS(=O)Cc1nc(-c2ccc(Cl)cc2)oc1C (centres undefined)
x	i	O=S(=O)(c1ccccc1)n1ccc2ccccc21
>57	i	CCOC(=O)COc1ccc(S(=O)(=O)NCCC2=CCCCC2)cc1
>57	i	Cc1nnn(C23CC4CC(CC(C4)C2)C3)n1
x	i	O=C(O)c1cnn2c1NC(c1cccs1)CC2C(F)(F)F (centres undefined)
x	i	O=C(O)c1ccccc1CN1CCC[C@@H](C(=O)O)C1
>57	i	CC(Oc1ccccc1Br)C(=O)N1CCc2ccccc21 (centres undefined)
x	i	Cc1ccccc1N1C(=O)c2ccccc2C1Nc1cccnc1 (centres undefined)
>57	i	CC(C)Cn1nc(NC(=O)C2CCCO2)c2cc3ccccc3nc21 (centres undefined)
>57	i	CC(=O)Nc1cc2c(cc1NC(=O)Cn1nc(-c3ccccc3F)ccc1=O)OCCO2
>57	i	CC(=O)Nc1ccc(-c2nn[nH]n2)cc1Cl
>57	i	CC1CC2(CC(C)(C(=O)CSc3n[nH]c(-c4ccccc4Cl)n3)OC2=O)C(=O)O1 (centres undefined)

The last two records of the part before come first, to join the parts.
PK Bst	YjeE inh	Compound
>57	i	CC(=O)Nc1ccc(-c2nn[nH]n2)cc1Cl
>57	i	CC1CC2(CC(C)(C(=O)CSc3n[nH]c(-c4ccccc4Cl)n3)OC2=O)C(=O)O1 (centres undefined)
>57	i	CCOC(=O)N1CCN(C(=O)CN(Cc2ccccc2)S(=O)(=O)c2ccc(OC)c(C)c2)CC1
x	i	Cc1cc(C)n2nc(SCC#N)nc2n1
>57	i	CC1CCC(C(=O)NC(C(=O)NCCN2CCC(C)CC2)C(C)C)CC1 (centres undefined)
>57	i	O=C(C1CCCO1)N1CCc2ccccc21 (centres undefined)
>57	i	COCCn1c(SCC(=O)Nc2cccc(OC)c2)nnc1-c1ccc(Cl)cc1
